# Screens: PubChem BioAssay, several laboratories
# APP 5'UTR act = activates APP 5'UTR luciferase reporter; SH-SY5Y APP 5'UTR luciferase reporter, luminescence; zero percent = DMSO vehicle wells; activation, % at 2 µM; 1% of 190,000 active; AID 1276;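 active means activation above a set limit, based on mean plus 3 SD of controls, cut at about 140% in these data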; further: values of inactives mirror those of a sister screen read the other way
# STAT1 inh = STAT1 signaling inhibition. inhibition, % at 5.5 µM. 0.35% of 200,000 active. NIH 3T3 STAT1-luciferase reporter, IFN-gamma, luminescence;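 active means inhibition above a set limit, the mean inhibition across all tested compounds plus 3 SD, cut at about 34% in these data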;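 further: 0% = IFN-gamma with DMSO and 100% = IFN-gamma with 300 µM nifuroxazide; values of inactives mirror those of a sister screen read the other way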
# STAT1 act = increases IFN-gamma driven STAT1 reporter signal; NIH 3T3 STAT1-luciferase reporter, luminescence; 100% = IFN-gamma alone, no compound; activation (% of control), % at 5.5 µM; 2.6% of 200,000 active;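 active means activation above the screen-wide mean activation plus 3 SD, cut at about 130% in these data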;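 further: raw ratio to IFN-gamma control signal so 100% means no change and 0% no light; values of inactives mirror those of a sister screen read the other way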
# STAT3 act = activators of IL-6 induced STAT3 signaling. U3A cells, IL-6 STAT3-luciferase reporter, luminescence; 100% = signal with IL-6 EC80 alone. activation (% of control), % at 5.6 µM. 0.91% of 190,000 active;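 active means activation above the screen-wide mean of compound activation plus 3 SD, cut at about 130% in these data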;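 further: 0% = background luminescence of wells with medium and substrate only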
#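 Material: human U3A cells carrying STAT3-luciferase construct. Measured by: reporter luminescence signal. Timing: compound 1 h, then IL-6 6 h at 37 °C.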
# STAT3 inh = reduces IL-6 driven STAT3 reporter signal; inhibition, % at 5.5 µM; U3A cells, IL-6 STAT3-luciferase reporter, luminescence; host cell line lacks STAT1; 0.89% of 190,000 active;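 active means inhibition above the mean inhibition across all screened compounds plus 3 SD, cut at about 44% in these data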;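 further: 0% = DMSO only wells and 100% = 100 µM nifuroxazide control wells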
# Hsp70 act = Hsp70 transcriptional activation, primary screen; HeLa Hsp70 promoter luciferase reporter, luminescence; scaled: vehicle 0, proteasome-inhibitor control 100%; activation, % at 10 µM; 0.04% of 200,000 active; AID 1203;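 active means activation above the mean across all tested compounds plus 3 SD, cutoff set per campaign, cut at about 5.5% in these data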;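 further: 100% = MG132 at 30 µM as the positive control and 0% = DMSO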
# RAM inhibit = inhibitors of the yeast RAM network | S. cerevisiae dse1pr::URA3 reporter, 5-FOA growth OD615, 2 d; analog-sensitive cbk1-as2 kinase mutant strain | 1.8% of 190,000 active | AID 868 | inhibition, % at 50 µM;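 active means inhibition above a set limit, 3 SD over mean compound inhibition, cut at about 8.4% in these data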;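 further: 0% = DMSO-only wells with no growth and 100% = 10 µM 1-NA-PP1 full growth; inhibition rescues growth on 5-FOA so higher OD means more RAM inhibition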
# * marks the source's active call; other numbers are inactive results; nt = not tested or not shown; & = joins results of further samples. Only part of the results is shown; count on the stated rates, not on these rows.
# Preview (three entries):
nr	SMILES	APP 5'UTR act	STAT1 inh	STAT1 act	STAT3 act
1	COc1cc2nc(N3CCN(C(=O)C4CCCO4)CC3)nc(N)c2cc1OC (stereo unspecified)	-2.6&9.4	-8.2&1.2	107.5&98.9	97.3&94.2
2	Cc1cccc(Nc2ccccc2)c1	0.6	5.0	95.9	103.2
3	Nc1nc(-c2ccccc2)cs1	38.4	-9.1	108.4	107.2

nr	STAT3 inh	Hsp70 act	RAM inhibit
1	5.0&8.9	0.0&-0.3&0.1	0.5&1.2
2	2.7	-0.3	0.7
3	-8.4	0.2	1.4

# Results, from the start:
nr	SMILES	APP 5'UTR act	STAT1 inh	STAT1 act	STAT3 act
1	COc1cc2nc(N3CCN(C(=O)C4CCCO4)CC3)nc(N)c2cc1OC (stereo unspecified)	-2.6&9.4	-8.2&1.2	107.5&98.9	97.3&94.2
2	Cc1cccc(Nc2ccccc2)c1	0.6	5.0	95.9	103.2
3	Nc1nc(-c2ccccc2)cs1	38.4	-9.1	108.4	107.2
4	COc1ccc(CCN2CCC(Nc3nc4ccccc4n3Cc3ccc(F)cc3)CC2)cc1	-2.8	8.6	92.2	104.8
5	COc1ccc(Cl)cc1C(=O)NCCc1ccc(S(=O)(=O)NC(=O)NC2CCCCC2)cc1	-1.7	-13.0	111.9	98.7
6	CC[n+]1oc(-c2ccccc2)cc1C	4.3	10.5	90.8	94.0
7	O=C(O)CP(=O)(O)O	-10.2	2.9	97.4	106.5
8	c1coc(CNc2ncnc3nc[nH]c23)c1	-0.8	-2.3	103.0	93.2

nr	STAT3 inh	Hsp70 act	RAM inhibit
1	5.0&8.9	0.0&-0.3&0.1	0.5&1.2
2	2.7	-0.3	0.7
3	-8.4	0.2	1.4
4	-3.1	-0.5	1.1
5	3.8	-0.4	7.0
6	8.0	-0.4	1.6
7	-5.0	-0.3	1.7
8	8.5	-0.4	0.9

# Looked up by compound from above:
nr	SMILES	APP 5'UTR act	STAT1 inh	STAT1 act	STAT3 act
8	c1coc(CNc2ncnc3nc[nH]c23)c1	-0.8	-2.3	103.0	93.2
1	COc1cc2nc(N3CCN(C(=O)C4CCCO4)CC3)nc(N)c2cc1OC (stereo unspecified)	-2.6&9.4	-8.2&1.2	107.5&98.9	97.3&94.2
5	COc1ccc(Cl)cc1C(=O)NCCc1ccc(S(=O)(=O)NC(=O)NC2CCCCC2)cc1	-1.7	-13.0	111.9	98.7

nr	STAT3 inh	Hsp70 act	RAM inhibit
8	8.5	-0.4	0.9
1	5.0&8.9	0.0&-0.3&0.1	0.5&1.2
5	3.8	-0.4	7.0

# (more compounds)
nr	SMILES	APP 5'UTR act	STAT1 inh	STAT1 act	STAT3 act
9	O=c1n(CCCN2CCN(c3cccc(Cl)c3)CC2)nc2ccccn12	12.6	-3.6	103.3	100.1
10	Nc1ccc(Oc2ccc(Cl)cc2)cc1	-11.4	-14.9	113.7	100.7
11	COc1ccccc1NC(=O)Nc1ccc2c(c1)OCCO2	nt	-31.8	133.1*	103.4
12	c1coc(-c2nc(-c3ccncc3)no2)c1	47.7	-26.1	124.2	104.4
13	CCc1oc2ccccc2c1C(=O)c1cc(Br)c(O)c(Br)c1	4.2	3.4	96.9	109.8
14	N/C(=N\OC(=O)c1cccs1)c1cccc(Br)c1	60.0	-42.8	136.3*	94.4
15	CN1CCc2cccc3c2[C@H]1Cc1ccc(O)c(O)c1-3	-6.7	3.0	97.3	100.9
16	CCOC(=O)C1=C(C)NC(C)=C(C(=O)OC)C1c1cccc([N+](=O)[O-])c1 (stereo unspecified)	-10.5	0.7	99.4	102.5

nr	STAT3 inh	Hsp70 act	RAM inhibit
9	2.2	-0.3	1.5
10	-0.6	0.0	0.7
11	-0.9	0.3	-1.1
12	-1.1	0.2	0.9
13	-8.7	-0.2	15.6*
14	8.9	-0.2	-1.0
15	1.4	-0.1	-1.1
16	-0.4	-0.2&-0.2	-1.0

# Compound profiles, as listed above.
# O=c1n(CCCN2CCN(c3cccc(Cl)c3)CC2)nc2ccccn12 reads APP 5'UTR act: 12.6; STAT1 inh: -3.6; STAT1 act: 103.3; STAT3 act: 100.1; STAT3 inh: 2.2; Hsp70 act: -0.3; RAM inhibit: 1.5
# CCc1oc2ccccc2c1C(=O)c1cc(Br)c(O)c(Br)c1 reads APP 5'UTR act: 4.2; STAT1 inh: 3.4; STAT1 act: 96.9; STAT3 act: 109.8; STAT3 inh: -8.7; Hsp70 act: -0.2; RAM inhibit: 15.6*

# (next part)
nr	SMILES	APP 5'UTR act	STAT1 inh	STAT1 act	STAT3 act
17	COc1ccc2cc3[n+](cc2c1OC)CCc1cc2c(cc1-3)OCO2	-16.8	28.4	74.2	78.4
18	CCC(=O)O[C@]1(C(=O)CCl)[C@@H](C)C[C@H]2[C@@H]3CCC4=CC(=O)C=C[C@]4(C)[C@@]3(F)[C@@H](O)C[C@@]21C	86.2	-28.9	126.3	106.3
19	c1ccc(-c2noc(-c3ccco3)n2)nc1	192.1*	-38.6	136.8*	78.9
20	Clc1cccc(Cl)c1NC1=NCCN1	nt	nt	nt	nt
21	CC(C)(Sc1cc(C(C)(C)C)c(O)c(C(C)(C)C)c1)Sc1cc(C(C)(C)C)c(O)c(C(C)(C)C)c1	8.1	-11.9	110.8	101.5
22	O=C(COC(=O)c1cccnc1Cl)c1ccc2c(c1)OCCO2	5.5	-22.1	119.1	105.6
23	CC(=O)OCC1=C(C(=O)O)N2C(=O)[C@@H](NC(=O)Cc3cccs3)[C@H]2SC1	-15.6	-2.7	102.4	111.7
24	Cn1c(=O)c2c(ncn2CC(O)CO)n(C)c1=O (stereo unspecified)	-0.8	2.7	97.5	105.0

nr	STAT3 inh	Hsp70 act	RAM inhibit
17	23.0	-0.4	0.7
18	-4.8	-0.1	2.5
19	27.9	0.1	-0.2
20	nt	0.2	nt
21	0.6	-0.2	4.4
22	-1.2	0.0	-0.3
23	-10.9	-0.3	1.7
24	-3.3	-0.2	1.7

# (cont.)
nr	SMILES	APP 5'UTR act	STAT1 inh	STAT1 act	STAT3 act
25	CN(C)CCCN1c2ccccc2CCc2ccc(Cl)cc21	2.2	3.2	97.1	88.0
26	COc1ccccc1-c1noc(-c2ccccc2)n1	125.0	-83.3	176.1*	98.2
27	c1ccc(-c2ccccn2)nc1	30.6	-3.6	103.3	108.3
28	COc1ccc2nc(N)sc2c1	13.5	-2.7	102.4	110.5
29	CN1CCc2cccc3c2[C@@H]1Cc1ccc(O)c(O)c1-3	-1.5	-3.5	103.2	94.5
30	CN(C)CCCN1c2ccccc2Sc2ccc(Cl)cc21	5.0&-4.8	-3.6&10.4	103.3&90.5	90.1&88.8
31	NNCCc1ccccc1	66.5	-5.9	105.3	111.4
32	CC(=O)Nc1c(I)c(NC(C)=O)c(I)c(C(=O)O)c1I	7.5&-0.4	-2.0&-2.9	101.9&102.6	102.4&98.4

nr	STAT3 inh	Hsp70 act	RAM inhibit
25	15.9	-0.3	-0.6
26	6.2	0.0	-0.3
27	-7.1	-0.1	0.3
28	-10.1	0.2	2.2
29	8.6	-0.2	0.4
30	13.5&17.0	-0.4&-0.1	-0.7&2.1
31	-10.5	0.5	-0.3
32	-0.3&4.1	0.2&-0.2	2.2&1.5

# Additional structures.
nr	SMILES	APP 5'UTR act	STAT1 inh	STAT1 act	STAT3 act
33	CN(C)C(=O)Oc1cccc([N+](C)(C)C)c1	-4.8&-7.0	-1.8&-7.9	101.6&107.2	100.3&108.3
34	Cn1c(=O)c2[nH]cnc2n(C)c1=O	0.6	-4.7	104.3	103.4
35	CC(=O)Nc1ccccc1O	-0.4	-6.3	105.7	95.7
36	c1ccc2c(c1)ccc1ncccc12	-17.8	-9.0	106.7	95.2
37	c1ccc(-c2nc[nH]c2-c2ccccc2)cc1	21.8	-3.9	103.6	101.7
38	OC(CNCC1CCCO1)Cn1c2ccccc2c2ccccc21 (stereo unspecified)	2.1	9.2	91.6	104.0

nr	STAT3 inh	Hsp70 act	RAM inhibit
33	2.0&-7.0	-0.2&-0.1	0.1&-0.5
34	-1.5	-0.2	2.9
35	7.2	-0.1	-0.3
36	8.0	0.3	1.5
37	7.9	-0.1	2.8
38	-2.0	0.0	0.1
